Sfp PPTase inh – Sfp phosphopantetheinyl transferase inhibition. Potency, µM, inactives show max response, negative = inhibition, usual class: inhibitors. Biochemical Sfp PPTase activity, qHTS. actives 3.5% (n = 310,000). Q9F4F7. AID 1490; active means well fitted inhibition curve with a large enough effect; inconclusive means small, poorly fitted or top-dose-only effect, or another doubt; inactive means no such curve, though single readings can be large or run the other way;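 further: the enzyme is Sfp with the accession as filed and its product quenches rhodamine fluorescence; potency means the concentration at half of the fitted maximal effect; 0% = enzyme reaction without inhibitor and -100% = no enzyme wells; top concentration of the series not given in the record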
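Buffer: 50 mM Hepes-Na pH 7.6, 10 mM MgCl2, 0.01% Nonidet P-40, 0.01% BSA. Enzyme 15 nM, pre-exposed to compound 15 min; substrates then added and fluorescence change tracked over 30 min.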
gsp ag – gsp mutant agonism; AID 624287; Potency, µM (titrated, usually from 76.9 µM), without a hit: at the highest dose activation (cAMP increase), actives largely listed as activators; actives 0.13% (n = 340,000); gsp mutant cells, cAMP HTRF, 30 min; control for the full effect not named in the record; active = well fitted activation curve with a large enough effect; inconclusive = small, poorly fitted or top-dose-only effect, or another doubt; inactive = no such curve, though single readings can be large or run the other way; cell line not stated here;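 further: phosphodiesterase inhibitor Ro 20-1724 added with compounds to block cAMP breakdown; potency means the concentration at half of the fitted maximal effect; nearly all actives have a fitted effect of over 60% in size; about a fifth of the inactives were tested at one dose only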
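Cells in DMEM/10% FBS with G418 were pretreated with compounds in DMSO plus […] (300 uM stock) for 30 min at 37C. cAMP was measured by HTRF (cAMP-d2 plus anti-cAMP antibody-K) after 30 min at room temperature.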
Menin MLL FP FL – displaces fluorescein MLL peptide from human menin; Fluorescence polarization, fluorescein-MLL peptide displacement from menin; FP activity change, % at 61.4 µM; 290,000 tested, under 10 active; AID 1766; inconclusive = falling polarisation curve, or a change in total fluorescence; inactive = total fluorescence flat and polarisation flat or rising; no compound was filed as active; the % refers to the polarisation; negative = inhibition;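 further: % of control where 0% means no effect; inhibitors lower the polarisation; unlabelled MLL peptide was the positive control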
gsp antag – gsp mutant antagonism; AID 624288; gsp-mutant cells, cAMP HTRF, 30 min; control for the full effect not named in the record; Potency, µM (doses to about 76.9 µM), for the others: at the highest dose activity change, negative = inhibition, hits mostly inhibitors; actives 0.4% (n = 340,000); active = falling curve of any shape with a large fitted effect; inconclusive = falling curve, mostly with a smaller effect; inactive = flat or rising curve; cell line not stated here;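 further: intracellular cAMP measured with PDE inhibitor Ro 20-1724 present during compound exposure; potency means the concentration at half of the fitted maximal effect; on the % scale 0 is the no-effect control and ±100 the full control effect; nearly all actives have a fitted effect of over 65% in size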
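HTRF cAMP read-out (cAMP-d2 plus anti-cAMP antibody-K in lysis buffer, 30 min RT). Before lysis, cells are exposed to compounds with […] for 30 min at 37C in DPBS containing Ca/Mg, BSA and Tween 20.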
PINK1 expr mod – modulators of PINK1 expression | PINK1 immunofluorescence, high-content cytometry, 24 h | Potency, µM (highest dose often 76.6 µM), for the others: top-dose activation (PINK1 increase), actives largely listed as activators | actives 0.2% (n = 410,000) | AID 624263; active = well fitted activation curve with a large enough effect; inconclusive = small, poorly fitted or top-dose-only effect; inactive = flat fitted curve, though single readings scatter; cell line not stated here;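 further: potency means the concentration at half of the fitted maximal effect; % of control where 0% means no effect; nearly all actives have a fitted effect of over 65% in size; a mitochondrial uncoupler was the plate control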
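Stable cell line, 250 cells/well, 12 h attachment; compounds pinned at 5 concentrations, 24 h; CCCP control. Fixed with nuclear dye, primary antibodies 12 h at 10 degrees C, secondary plus cell stain; laser-scanning cytometer read.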
ClpP mod – qHTS Assay for Activators of ClpP; ATP-dependent Clp protease proteolytic subunit (Bacillus subtilis (strain 168)), P80244; purified B. subtilis ClpP, FRET peptide cleavage, 20 min; Potency, µM (titrated, usually from 57.5 µM), without a hit: at the top dose activity change, negative = active; actives 1.9% (n = 340,000); AID 651965, 2013; active = well fitted falling curve with a large enough effect; inconclusive = small, poorly fitted or top-dose-only effect; inactive = no such curve, though single readings can be large or run the other way; further: potency means the concentration at half of the fitted maximal effect; the source files actives as falling curves though it sought activators and does not explain the sign; nearly all actives have a fitted effect of over 65% in size; many hits overshoot -100%
Target sequence (P80244 whole entry, looked up): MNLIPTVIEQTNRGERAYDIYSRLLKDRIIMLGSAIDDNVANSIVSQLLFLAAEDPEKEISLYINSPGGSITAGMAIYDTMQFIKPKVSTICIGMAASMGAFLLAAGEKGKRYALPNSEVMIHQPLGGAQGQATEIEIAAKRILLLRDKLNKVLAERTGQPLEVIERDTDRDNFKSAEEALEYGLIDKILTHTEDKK
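Purified B. subtilis ClpP, 10 microg/mL final in Tris/HCl pH8 with KCl, BSA, glycerol and Tween-20, cleaved an Abz/nitrotyrosine-quenched decapeptide. Fluorescence (ex 320, em 430) was read at 0 and 20 min at room temperature. Delta was normalized to 5.8 microM ADEP and DMSO/no-enzyme controls.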
D2 agonist – human D2 receptor agonism in beta-arrestin assay | activation, % (no concentration beside the values) | AID 624465 | P14416 | actives 0.084% (n = 360,000) | DiscoveRx PathHunter D2 beta-arrestin, luminescence, 90 min; 100% = 57 uM dopamine signal; in the data active = activation above about 40%; inconclusive = about 15% to 40%; inactive = below about 15%; further: compound concentration not given in the record; the text of the record calls up to 30% inactive
Target sequence (P14416 whole entry, looked up): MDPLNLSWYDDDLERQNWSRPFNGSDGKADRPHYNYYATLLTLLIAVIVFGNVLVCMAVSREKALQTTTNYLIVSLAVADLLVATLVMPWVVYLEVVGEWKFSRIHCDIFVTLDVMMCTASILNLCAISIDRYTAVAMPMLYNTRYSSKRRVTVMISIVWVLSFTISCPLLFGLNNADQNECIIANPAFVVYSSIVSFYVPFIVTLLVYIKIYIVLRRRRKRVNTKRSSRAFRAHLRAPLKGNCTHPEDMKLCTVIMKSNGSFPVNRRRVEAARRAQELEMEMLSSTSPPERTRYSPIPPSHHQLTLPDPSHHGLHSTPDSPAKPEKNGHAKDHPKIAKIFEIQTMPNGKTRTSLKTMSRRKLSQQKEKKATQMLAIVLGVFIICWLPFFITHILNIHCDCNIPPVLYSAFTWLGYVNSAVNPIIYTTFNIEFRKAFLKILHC
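Agonist mode: compounds alone added to overnight-plated D2 PathHunter cells for 90 min at 37 C, with 57 uM final dopamine (EC100) defining full response. Beta-arrestin recruitment detected by chemiluminescent reagent, read after 1 h at ambient temperature.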
Active calls of the source: *; ? = inconclusive; . = no result given; [ ] = remark or other dose.

SMILES	Sfp PPTase inh	gsp ag	Menin MLL FP FL	gsp antag	PINK1 expr mod	ClpP mod	D2 agonist
CC(=O)c1ccc(NC(=O)CCNS(=O)(=O)c2cc(Br)cnc2N)cc1	1.0%	-2.2%	.	0.7%	1.8%	-23.8%	-3.0
CCN(CC)CCN(C(=O)c1ccc2ccccc2c1)c1nc2ccc(OC)cc2s1	-26.9%	-9.4%	-6.6	-5.3%	5.9%	-3.6%	-4.8
Cc1cc(N2CCN(C)CC2)ccc1NC(=O)c1cccc(S(=O)(=O)N2CCc3ccccc3C2)c1	-17.9%	3.4%[15.4 µM]	-1.6	9.0%	-1.9%	2.5%	1.4
CCOC(=O)C1CCN(C(=O)CCS(=O)(=O)c2ccc3c(c2)CCN3C(C)=O)CC1	7.7%	12.4%	2.7	-0.7%	-2.6%	-1.0%	-0.5
O=C(Nc1ccnc(-c2ccncc2)n1)c1ccccc1Cl	11.2%	-26.0%	1.2	3.6%	0.8%	1.0%	-2.4
COc1ccc(NS(=O)(=O)c2ccc3oc(SC)nc3c2)cc1	50.1µM*	8.9%[15.4 µM]	0.8	-3.3%	0.2%	.	2.9
CC1(C)CC(N(Cc2ccco2)C(=O)Cc2ccccc2)CCO1 (stereo unspecified)	16.3%	-14.9%	0.9	1.3%	-2.6%	-0.6%	1.7
CCn1cc(CNC(=O)CCc2ccc(OC)cc2)cn1	22.4%	-31.1%	0.5	-2.5%	-0.7%	0.0%	0.2
COC(=O)C1=C(C)NC2=C(C(=O)C(C(=O)OC)C(c3ccc(OC)cc3)C2)C1c1ccccn1 (stereo unspecified)	-3.7%	-38.4%[inhibitor]	-2.1	-4.6%	0.8%	?	2.0
N#C/C(=C\Nc1ccc(F)c(Cl)c1)C(=O)C1CC1	7.6%	24.3%	-1.2	4.3%	-0.3%	0.7%	-4.6
Cn1c(CSCc2ccccc2Cl)nnc1SCC(=O)Nc1nccs1	5.6%	3.6%	-0.2	-10.7%	1.8%	-1.1%	0.6
NC(=O)c1c(NC(=O)Cc2cccs2)sc2c1CCC2	-10.8%	10.7%	4.8	-9.0%[15.4 µM]	2.3%	-11.0%	0.9
Cc1ccc(Cl)cc1NS(=O)(=O)c1c(C)[nH]c(=O)[nH]c1=O	-6.4%	1.5%	4.2	-6.5%	-1.1%	-0.1%	-0.5
CC(Oc1cc2oc(=O)c3c(c2cc1Cl)CCC3)C(=O)NCCN1CCOCC1 (stereo unspecified)	14.0%	8.2%	1.3	-11.1%	0.7%	3.2%	0.9
CN(c1ccccc1)S(=O)(=O)c1cccc(NC(=O)C2CCCO2)c1 (stereo unspecified)	.	-2.3%[15.4 µM]	.	-0.7%	-1.2%	-2.0%	0.7
COc1ccc(NC(=O)CCn2nc(C)cc2C)cc1	-10.1%	-29.0%	0.2	5.4%	2.8%	-0.2%	-1.8
COc1ccc(CNCC(O)(c2ccc(Cl)cc2)c2ccc(Cl)cc2)cc1OC	44.7µM*	12.1%	-5.8	11.0%	0.5%	4.5%	-0.3
Cc1ccc(CNC(=O)c2ccc(N(C)C)cc2)cc1	22.7%	3.3%	2.1	7.8%	5.3%	-0.3%	-3.5
CCOC(=O)C1(CCOC)CCN(C(=O)Cc2ccc3ccccc3c2)CC1	0.7%	-43.0%[inhibitor]	2.0	-0.3%	1.5%	.	5.8
COc1ccc(NC(=O)COC(=O)CNS(=O)(=O)c2ccc(C)cc2)c(OC)c1	18.7%	-1.4%[15.4 µM]	12.6	-10.6%	-0.9%	-16.3%	-5.9
CCCCc1c(C)c2ccc(OC)c(/C(C)=N\O)c2oc1=O	25.8%	-7.3%	4.2	-13.6%	1.4%	8.91µM*	-2.7
COc1ccc(-c2nn(CCC(=O)O)cc2/C=C/C(=O)O)cc1[N+](=O)[O-]	2.4%	10.2%	-1.0	14.6%	-0.7%	-1.6%	-3.6
Cc1cnc(C(=O)OCc2nc3ccsc3c(=O)[nH]2)cn1	.	25.0%	.	9.7%	2.3%	-23.5%	-3.4
CC(C)(C)c1ccc(NC(=O)COC(=O)c2ccc([N+](=O)[O-])s2)cc1	-11.7%	-3.8%	5.7	?	1.7%	1.6%	-1.9
CC(=O)c1cccc(-c2cnc3c(NC=O)cc(-c4ccccc4)cn23)c1	.	.	.	.	2.5%	-7.0%	2.1
COc1cccc(Nc2nc(N)nc(-c3oc4ccccc4c3C)n2)c1	-20.5%	1.8%	6.3	-1.0%	-2.6%[38.3 µM]	-8.2%	0.5
Cc1ccc(S(=O)(=O)NNC(=O)c2cccs2)c(C)c1	12.8%	6.1%	.	9.4%	-2.6%	1.4%	-4.0
COc1ccccc1CN1CC(C(=O)NCCc2cn[nH]c2)CCC1=O (stereo unspecified)	-3.9%	-62.1%[inhibitor]	-0.1	10.7%	2.0%	0.3%	-1.2
Cc1sc2ncn(-c3ccccc3)c(=O)c2c1C	21.1%	18.9%[15.4 µM]	-3.1	2.0%	1.1%	.	-6.8
Cc1[nH]c2ccccc2c1N=Nc1ccccc1F	9.2%	?	0.7	-4.0%	0.5%	.	-0.4
COc1ccc2[nH]c(=O)c(CN(C(=O)c3ccncc3)C(C)C)cc2c1	12.6%	-25.2%	1.4	4.8%	1.4%	?	-0.8
CCc1nnc(NS(=O)(=O)c2ccc(NC(=O)COc3ccc4ccccc4c3)cc2)s1	1.0%	-8.0%[15.4 µM]	0.5	-11.6%	2.4%	.	-5.4
O=C1CC(c2cccc(Cl)c2)CC(O)=C1C=NC1CCCC1 (stereo unspecified)	-2.2%	-14.4%	-0.5	-3.8%	0.7%	39.4%	-5.7
CCOC(=O)N1CCN(C(=O)COc2cc(=O)n(C)c3ccccc23)CC1	17.3%	-4.1%	1.0	0.6%	-0.9%[38.3 µM]	-8.7%	-0.3
O=C(Nc1ccc(Cl)cc1)P(=O)(O)c1ccccc1	.	-11.0%[15.4 µM]	.	10.6%	6.2%	0.6%	-4.0
CC(=O)Nc1ccc(C(=O)NNC(=O)C2CC2)cc1	-6.2%	-4.5%	0.4	0.5%	2.6%	0.8%	-0.9
CCOC(=O)c1cnc(-c2ccccc2)nc1Oc1ccc(C)cc1	?	3.4%	-2.4	-4.6%	3.2%	-0.9%	-3.6
CN(C)S(=O)(=O)c1ccc(Cl)c(C(=O)NCCNC(=O)c2cc(S(=O)(=O)N(C)C)ccc2Cl)c1	-6.5%	-48.5%[inhibitor]	4.4	17.0%	0.7%	2.7%	0.4
CC(C)(C)C(=O)NC(=S)NNC(=O)c1ccncc1	?	-1.2%	-4.3	0.3%	4.3%	.	-1.1
COc1cc([N+](=O)[O-])ccc1NC(=O)CN1CCOCC1	?	-0.9%	0.9	2.8%	-0.9%	-1.3%	-4.5
CC(C)(C)NC(=O)C1(C)CCC(=O)N1CCCn1ccnc1 (stereo unspecified)	.	.	.	.	-0.4%	0.9%	2.8
COC(C(=O)Nc1ccnn1C1CCN(Cc2ccc(Cl)s2)CC1)c1ccccc1 (stereo unspecified)	10.1%	-53.6%[inhibitor]	-0.9	-14.6%	-1.0%	0.8%	-1.1
O/N=C/c1cccnc1Sc1ccccc1	26.1%	-0.6%[15.4 µM]	0.3	-9.5%	0.9%	.	1.2
Cc1ccc(OCC(O)CN2CCN(c3ccccc3)CC2)cc1 (stereo unspecified)	-1.2%	9.0%	-0.4	4.0%	-2.5%	0.6%	2.7
CCOc1ccc(CN(C(=O)c2ccco2)C2CCS(=O)(=O)C2)cc1 (stereo unspecified)	6.6%	3.2%	0.1	5.5%	-2.8%	-1.8%	0.1
CC(=O)Nc1nonc1-c1nc2ccccc2n1N(C(C)=O)C(C)=O	-5.1%	?	2.7	-6.9%	2.9%	28.2µM*	-3.0
Cc1ncc(C)c2c([N+](=O)[O-])cccc12	.	-25.8%	.	.	-1.8%	-2.0%	-1.0
O=S(=O)(Nc1ccccc1)c1cccc2nsnc12	13.1%	?	-0.6	7.6%	-0.1%	.	1.4
CC(OC(=O)c1cc(Cl)ccc1[N+](=O)[O-])C(=O)NC(C)c1ccc(F)cc1 (stereo unspecified)	1.7%	-3.2%	8.3	-22.6%	0.0%	-1.5%	7.4
CCNC(=S)N1N=C2c3ccccc3CCC2C1c1ccc(F)cc1 (stereo unspecified)	0.0%	0.5%[15.4 µM]	-1.6	-22.1%	4.9%	0.4%	2.8
CNS(=O)(=O)c1ccc(NC(=O)c2cncc(Br)c2)cc1	12.1%	?	-1.4	4.5%	9.8%	.	3.6
CCc1noc(C)c1C(=O)Nc1nc(-c2cc(OC)ccc2OC)cs1	.	-43.1%[inhibitor]	.	?	3.1%	4.1%	-1.9
C=CCNC(=O)CSc1nnc(-c2ccncc2)n1CCc1ccccc1	16.5%	-52.5%[inhibitor]	-1.7	2.3%	0.4%	-4.8%	0.2
O=c1c(-c2c(O)cc(O)c3c(=O)cc(-c4ccc(O)cc4)oc23)c(-c2ccc(O)cc2)oc2cc(O)cc(O)c12	?	.	-1.0	-19.6%	1.5%	-3.5%	-10.5
CS(=O)(=O)N1CCC(C(=O)NCc2ccc(F)cc2)CC1	12.1%	5.3%	0.6	12.2%	-2.3%	-0.4%	-0.1
O=C(CSc1n[nH]c(-c2ccncc2)n1)NCCc1ccccc1	9.6%	-14.1%	4.0	-8.8%	1.7%	1.2%	-2.9
C=CCNC(=O)c1ccccc1Cl	14.7%	2.4%	-0.4	5.5%	4.1%[38.3 µM]	-1.0%	0.4
COc1cccc2cc(C(N)=O)/c(=N\NC(=O)c3ccccc3)oc12	-18.8%	-0.8%[15.4 µM]	3.4	-10.6%	-0.4%	-1.7%	-3.4
O=C(Nc1cccc2nsnc12)c1cc2c(cc1Cl)Sc1nccn1S2(=O)=O	.	7.1%	.	1.9%	4.0%	-4.5%	-2.7
